StopGo reporter – High Throughput Screening for Foot and Mouth Disease Virus Antivirals. AID 1159524, 2015. human cells with a luciferase reporter of 2A StopGo recoding; control for the full effect not named in the record. 1.2% of 410,000 active. Potency, µM (top dose mostly 57.9 µM), for inactives: at the top dose signal change, negative = less light; active = well fitted falling curve with a large enough effect; inconclusive = small, poorly fitted or top-dose-only effect; inactive = no such curve, though single readings can be large or run the other way; tested in HEK293T cells; note: nearly all actives have a fitted effect of over 45% in size; luciferase light after 4 h
RE007 growth inh – qHTS Assay for Inhibitors of the HIV-1 protein Vpr. S. pombe RE007 Vpr strain, BacTiter-Glo ATP luminescence, 24 h; control for the full effect not named in the record. Potency, µM (titrated, usually from 92.2 µM), for the others: top-dose activity change, negative = less growth. 0.21% of 360,000 active. AID 651644, 2012; active = well fitted falling curve with a large enough effect; inconclusive = small, poorly fitted or top-dose-only effect; inactive = no such curve, though single readings can be large or run the other way;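 note: nearly all actives have a fitted effect of over 50% in size; the assay follows cell death caused by Vpr and the record does not say whether a fall means rescue or toxicity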
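Fission yeast strain RE007, carrying one chromosomally integrated HIV-1 vpr copy, was seeded at OD 0.01 in PMG+AL medium with 23 nL pinned compound. After 24 h at 30 °C and 99% humidity, viability was read by BacTiter-Glo luminescence.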
* marks the source's active call; other numbers are inactive results; [ ] = dose if it differs, or a comment. % is set by controls: 0 for no effect and ±100 for the full control effect; potency is the fitted concentration of half-maximal effect.

CC1(C(=O)NS(=O)(=O)C2CC2)CCN(C(=O)COc2ccc(Cl)cc2Cl)C1 (stereo not drawn) was read as StopGo reporter -11% and RE007 growth inh 2%.
`Clc1ccc2nc(-c3cccc(Br)c3)c(Cc3ccccc3)n2c1` gave StopGo reporter 36%[activator] and RE007 growth inh inconclusive.
For Cc1cc(NC(=O)OC(C)(C)C)c(-n2nnnc2C(C(=O)c2ccc3c(c2)OCO3)N2CCN(c3ccccn3)CC2)cc1C (stereo not drawn) the results were StopGo reporter 43%[activator] and RE007 growth inh inconclusive.
Screening CC1(C(=O)NCC2CCOCC2)Cc2c(-c3cccc(C(N)=O)c3)ccnc2O1 (stereo not drawn) returned StopGo reporter -22% and RE007 growth inh -8%.
Screening Cc1ccc2nc(C3CCCCC3)c(Cc3cccc(F)c3)n2c1 returned StopGo reporter -7% and RE007 growth inh inconclusive.
Screening OC(c1ccc(F)c(F)c1)c1nc(-c2cccs2)cs1 (stereo not drawn) returned StopGo reporter 10% and RE007 growth inh -9%[18.4 µM].
For COc1ccc(CNC(=O)O[C@@H]2C[C@H]3C(=O)N(c4ccccc4)C(=O)[C@H]3[C@@]3(CN(S(=O)(=O)c4ccc(C)cc4)C[C@H]3C)[C@@H]2O)cc1OC the results were StopGo reporter inconclusive and RE007 growth inh -19%.
For COC(=O)C1=CN(c2ccc(Oc3ccccc3)cc2)C(N)=C(C#N)C1c1cccc(OC)c1OC (stereo not drawn) the results were StopGo reporter -8% and RE007 growth inh 0%.
For CCNC(=O)C1CCCN(C(=O)c2cc(F)ccc2C)CC1 (stereo not drawn) the results were StopGo reporter -20% and RE007 growth inh 15%.
For COc1ccc(NC(=O)c2cc(-c3cc(Cl)ccc3OC)n[nH]2)c(OC)c1 the results were StopGo reporter -17% and RE007 growth inh -25%[18.4 µM].
Screening COc1ccccc1-c1noc2c1C(=O)N(Cc1cn(-c3ccccc3OC)nn1)CC2 returned StopGo reporter inconclusive and RE007 growth inh -16%.
`CCCCN(C=O)c1c(CC)nc2c(OCc3cc(Cl)cc(Cl)c3)cccn12` gave StopGo reporter -22% and RE007 growth inh -9%.
For CC(C)c1cc(Cn2c3ccccc3c(=O)n2C(C)Cn2cc(-c3ccc(C(C)(C)C)cc3)nn2)on1 (stereo not drawn) the results were StopGo reporter -20% and RE007 growth inh -3%.
`O=C(NC1CCCC1)C(C1CC1)n1c(-c2ccccn2)nc2ccccc21` (stereo not drawn) gave StopGo reporter -7% and RE007 growth inh 0%.
`Cc1cc(Cl)ccc1C(O)c1ncc(-c2ccccc2C(F)(F)F)[nH]1` (stereo not drawn) gave StopGo reporter 15% and RE007 growth inh 12%.
For Cn1c(CC(O)c2nc3ccccc3n2C)nc2ccccc21 (stereo not drawn) the results were StopGo reporter 24% and RE007 growth inh 9%.
For CCOC(=O)C1CCCN(C(=O)c2ccc(F)c(Cl)c2)CC1 (stereo not drawn) the results were StopGo reporter -16% and RE007 growth inh -2%[18.4 µM].
Screening CC(C)(C)NC(=O)C1c2ccccc2OCC(=O)N1CCc1ccccc1 (stereo not drawn) returned StopGo reporter 10% and RE007 growth inh 0%.
CCCc1ccc(S(=O)(=O)N2CCN(C(=O)CN3C(=O)NC(C)(C4CC4)C3=O)CC2)cc1 (stereo not drawn) was read as StopGo reporter -20% and RE007 growth inh 12%.
Screening c1ccc(Cn2ncc3c(N4CCN(c5ccccc5)CC4)ncnc32)cc1 returned StopGo reporter 22µM* and RE007 growth inh 0%.
Screening C#CCN(C[C@H]1[C@H](OC(=O)NCc2ccccc2F)[C@H](OC(=O)NCc2ccccc2F)C[C@@H](C(=O)OC)[C@H]1C(=O)OC)S(=O)(=O)c1ccc(C)cc1 returned StopGo reporter -9% and RE007 growth inh -4%.
`CCCNC(=O)C1(C)CCN(C(=O)c2ccc(OC(F)F)cc2)C1` (stereo not drawn) gave StopGo reporter -19% and RE007 growth inh -10%.
For Cc1ccc(S(=O)(=O)N2C[C@H]3C(=O)C[C@@H](c4ccc(Cl)cc4)N(S(=O)(=O)c4ccccc4C)[C@H]3C[C@H]2c2ccc(Cl)cc2)cc1 the results were StopGo reporter -20% and RE007 growth inh 8%.
For CSc1ncnc2c1ncn2CCCN(C)Cc1ccco1 the results were StopGo reporter -8% and RE007 growth inh -2%.
`CC(C)N(C)c1ncnc2c1ncn2[C@H]1CN(Cc2cccnc2)C[C@@H](CO)O1` gave StopGo reporter -14% and RE007 growth inh 2%.
COc1ccc(CN2Cc3cc(-c4cccc(F)c4)ccc3-n3nncc3C2)cc1 was read as StopGo reporter -20% and RE007 growth inh -9%.
`COCCNC(=O)C[C@@H]1C[C@H]2c3cc(NC(=O)Nc4ccc(F)cc4)ccc3O[C@H]2[C@H](CO)O1` gave StopGo reporter -10% and RE007 growth inh 7%.
`CC(=O)NC(c1ccccc1)c1nc(-c2cccc(C(F)(F)F)c2)cs1` (stereo not drawn) gave StopGo reporter -21% and RE007 growth inh -1%.
O=C(Nc1ccncc1)c1cc(C2CCCCN2C(=O)CCCc2ccccc2)on1 (stereo not drawn) was read as StopGo reporter inconclusive and RE007 growth inh -20%.
`O=C(NC(c1ccc(F)cc1)c1ccc2ccccc2n1)C1CCN(Cc2ccc(Oc3ccccc3)cc2)CC1` (stereo not drawn) gave StopGo reporter -14% and RE007 growth inh 4%.
Screening O=C(COC(=O)c1ccc(S(=O)(=O)N2CCOCC2)cc1)NCc1ccco1 returned StopGo reporter -8% and RE007 growth inh -17%.
For COc1ncnc2c1ncn2CCCN1CCN(c2ncccn2)CC1 the results were StopGo reporter 0% and RE007 growth inh -3%.
C[C@H]1CN([C@@H](C)CO)S(=O)(=O)c2ccc(-c3ccc(C#N)cc3)cc2O[C@H]1CN(C)C(=O)CN(C)C was read as StopGo reporter -7% and RE007 growth inh 1%.
O=C(CC1CCCC1)NNC(=O)c1ccccc1O was read as StopGo reporter 9% and RE007 growth inh 4%.
For COC(=O)c1ccc2cc(F)cc(C)c2n1 the results were StopGo reporter 12% and RE007 growth inh 1%.
For CN(C)S(=O)(=O)c1cccc(NC(=O)CNc2cccc(S(=O)(=O)N3CCCCC3)c2)c1 the results were StopGo reporter -6% and RE007 growth inh 15%.
`CC(=O)N1CCOCC1c1cc(C(=O)Nc2ccccc2)no1` (stereo not drawn) gave StopGo reporter 20% and RE007 growth inh 0%.
Screening COc1ccccc1Cc1c(-c2ccc(C#N)cc2)nc2ccc(C)cn12 returned StopGo reporter -22% and RE007 growth inh -22%.
Cc1cccc(NC(=O)CN2CCN(C(=O)CN3C(=O)NC4(CC(C)CC(C)(C)C4)C3=O)CC2)c1C (stereo not drawn) was read as StopGo reporter -29% and RE007 growth inh -1%.
For CCC1(CC)C(=O)C2=C3C1[C@H](C(=O)OC)C=C(C(=O)OC)C[C@H]3[C@H]1C(=O)N(CC(=O)OC)C(=O)[C@H]1[C@H]2C (stereo partly drawn) the results were StopGo reporter -2% and RE007 growth inh 10%.
Screening COc1cccc(NC(=O)C2(C)CCN2Cc2ccc3ccccc3c2)c1 (stereo not drawn) returned StopGo reporter -16% and RE007 growth inh 11%.
For O=C(C=CC=Cc1ccccc1)c1ccc([N+](=O)[O-])cc1 the results were StopGo reporter -3% and RE007 growth inh 0%.
Screening COC(=O)[C@@]1(C(C)C)N=C(c2cc(OC)c(OC)c(OC)c2)[C@]2(O1)C(=O)N(C)c1ccccc12 returned StopGo reporter -22% and RE007 growth inh 7%.
For COCCNc1nc(C)cc(-c2cc(C(=O)Nc3ccccc3)on2)n1 the results were StopGo reporter 21% and RE007 growth inh -17%.
CC(=O)Nc1ccc(NC(=O)C2(C)Cc3c(-c4ccc(NC(C)=O)cc4)ccnc3O2)cc1 (stereo not drawn) was read as StopGo reporter -5% and RE007 growth inh 4%[18.4 µM].

Arranged by molar mass (rising): part of the list above.
For CCNC(=O)C1CCCN(C(=O)c2cc(F)ccc2C)CC1 (stereo not drawn) the results were StopGo reporter -20% and RE007 growth inh 15%.
`CC(=O)N1CCOCC1c1cc(C(=O)Nc2ccccc2)no1` (stereo not drawn) gave StopGo reporter 20% and RE007 growth inh 0%.
`CCCNC(=O)C1(C)CCN(C(=O)c2ccc(OC(F)F)cc2)C1` (stereo not drawn) gave StopGo reporter -19% and RE007 growth inh -10%.
CC1(C(=O)NS(=O)(=O)C2CC2)CCN(C(=O)COc2ccc(Cl)cc2Cl)C1 (stereo not drawn) was read as StopGo reporter -11% and RE007 growth inh 2%.
Screening COC(=O)[C@@]1(C(C)C)N=C(c2cc(OC)c(OC)c(OC)c2)[C@]2(O1)C(=O)N(C)c1ccccc12 returned StopGo reporter -22% and RE007 growth inh 7%.

(list continues)
For CC1=C(C(=O)N2CCOCC2)CC(CC(=O)NC2CC2)C(=O)N1CCC1=CCCCC1 (stereo not drawn) the results were StopGo reporter -18% and RE007 growth inh -11%.
For C[C@H]1CN([C@@H](C)CO)C(=O)CCCn2nncc2CO[C@H]1CN(C)C(=O)Oc1cccc2ccccc12 the results were StopGo reporter -3% and RE007 growth inh 3%.
For O=C(Cc1ccc(Cl)cc1)NCCc1ccc(F)cc1 the results were StopGo reporter 4% and RE007 growth inh -21%.
O=C(Nc1ccc2c(c1)OCCO2)C(c1ccncc1)n1c(=O)c(-c2cc3ccccc3[nH]2)nc2ccccc21 (stereo not drawn) was read as StopGo reporter 37%[activator] and RE007 growth inh 1%.
O=C(NCCN1CCC(n2c(=O)[nH]c3ccccc32)CC1)c1cccnc1Cl was read as StopGo reporter -31% and RE007 growth inh 7%.
CCOc1ccc(OCCC(=O)Nc2ccccc2C(=O)NC2CC2)cc1 was read as StopGo reporter -9% and RE007 growth inh 8%.
For Cc1nc(NC(=O)c2cccnc2Cl)sc1C the results were StopGo reporter 54%[activator] and RE007 growth inh -7%.
Screening COc1ccc(Cc2nnc(SC)n2-c2ccc(F)cc2)cc1OC returned StopGo reporter -25% and RE007 growth inh 20%.
For Cc1nn(CC(C)C)c(Cl)c1C(=O)NCC1CCCO1 (stereo not drawn) the results were StopGo reporter -14% and RE007 growth inh -16%.
COc1cccc2c(=O)c(C(=O)NCCc3ccccc3)c[nH]c12 was read as StopGo reporter 72%[activator] and RE007 growth inh -13%.
`O=S1(=O)N[C@H](Cc2ccccc2)COc2cccc(N3CCN(Cc4ccccc4F)CC3)c21` gave StopGo reporter inconclusive and RE007 growth inh -26%.
`Cc1ccc(NC(=O)COC(=O)c2cccc(S(=O)(=O)N3CCCCCC3)c2)cc1` gave StopGo reporter 0% and RE007 growth inh 2%.
`CC1(C)CC(=O)C=C(c2cn[nH]n2)C1` gave StopGo reporter -11% and RE007 growth inh -12%.
`CN(Cc1ccccc1)C(=O)c1ncn2c1c(=O)[nH]c1cccnc12` gave StopGo reporter -11% and RE007 growth inh -3%.
`CCCN(C)C[C@@H]1OCCCC[C@@H](C)Oc2ccc(NS(=O)(=O)c3ccc(OC)cc3)cc2C(=O)N([C@H](C)CO)C[C@@H]1C` gave StopGo reporter 1% and RE007 growth inh -8%.
Screening COc1ccc([C@H]2N[C@]3(CCCN(CC4CCCCC4)C3=O)[C@H]3C(=O)N(C)C(=O)[C@@H]23)cc1 returned StopGo reporter 0% and RE007 growth inh 4%.
For Cc1cc(C(=O)N2CCCC(N3CCN(c4ccccc4C)CC3)C2)no1 (stereo not drawn) the results were StopGo reporter -9% and RE007 growth inh -20%.
Screening CC(=O)Nc1ccc(C(=O)N2CCCCC2c2cc(C(=O)Nc3ccccc3Cl)no2)cc1 (stereo not drawn) returned StopGo reporter 5% and RE007 growth inh -9%.
c1cnc2c(-c3cccc4nccn34)cccc2c1 was read as StopGo reporter -14% and RE007 growth inh -4%.
`CN1OC[C@@H]2CN(Cc3cc(Cl)cc(Cl)c3)[C@H](c3cccc(-c4ccccc4)c3)C[C@@H]21` gave StopGo reporter -22% and RE007 growth inh 6%.
CCc1nc2ccc(C(=O)N3CCN(S(=O)(=O)CC)CC3)cn2c1N(C)CCC(C)C was read as StopGo reporter -7% and RE007 growth inh -8%.
For COc1ccc(C(NC(=O)C2CCN(CCCOc3ccccc3)CC2)c2ccccn2)cc1 (stereo not drawn) the results were StopGo reporter -26% and RE007 growth inh -6%.
CNC(=O)C1(C)Cc2c(-c3ccc4c(c3)OCO4)ccnc2O1 (stereo not drawn) was read as StopGo reporter -19% and RE007 growth inh -6%.
CC(C)(O)C#Cc1ccc(N2C(c3ccsc3)=Cc3ccc(F)cc3C2c2c[nH]c3ccccc23)cc1 (stereo not drawn) was read as StopGo reporter -13% and RE007 growth inh -1%.

Screening results from PubChem BioAssay.

Not all compounds are listed, so the mix of outcomes need not match the whole.
